Choline anaer gr: choline-fed anaerobic bacterial growth inhibition; Gram-negative bacterium anaerobic choline minimal medium, absorbance growth; hits give low values; many inactives read as strong as hits in the columns shown; calls only; 0.2% of 55,000 active;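 active = growth z-score on choline under -2 at 7 or 20 h with little or no fall on glycerol, limits in tiers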;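 also: stock transfer was 300 nL into about 50 µL; the organism is E. coli; final concentration not given here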
Choline anaer gr early: also measured in Choline anaer gr; calls as there; z-score; measured here: choline growth z-score, timepoint 1;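 score of optical density at 7 h as mean of two plates; lower means less growth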
* marks the source's active call; other numbers are inactive results; i = inactive; & = joins results of further samples.

SMILES | Choline anaer gr | Choline anaer gr early
Cc1ccccc1CC(=O)N1CCCC(c2nc3c(nnn3Cc3ccc(F)cc3)c(=O)[nH]2)C1 (stereo unspecified) | i | 0.72
CC(C)(C)c1ccc(S(=O)(=O)Nc2cccc(-c3nnc(-c4ccccc4)o3)c2)cc1 | i | 1.66
Cc1c(Cl)cccc1NC(=O)NCc1cccn1Cc1ccccc1 | i | 1.23
CCOC(=O)c1c(C)[nH]c(CN(Cc2ccccc2)C(=O)Nc2ccccc2)c1C | i | 0.48
Cc1oc2ncn(Cc3cccc(Cl)c3)c(=O)c2c1C | i | 0.32
COc1cccc(CN2CCCC2c2c(C)noc2C)c1O (stereo unspecified) | i | -0.48
CCOc1ccc(-n2c(=S)sc3c(=O)[nH]c(SCC(=O)NCc4ccccc4)nc32)cc1 | i | -0.18
Cn1c(SCc2cc(F)cc(F)c2)nnc1-c1sc2ncccc2c1N | i | 0.77
Cc1ccccc1CN1CCCN(c2cccc(C(=O)NCc3ccccn3)c2)C1=O | i | 0.54
Cn1c(CCc2ccc(NC(=O)CN3C(=O)COc4ccccc43)cc2)nc2ccccc21 | i | -0.67
CCOCC(=O)Nc1ccc(-c2cn3c(C(=O)N(C)C)csc3n2)cc1 | i | -0.05
O=C(NC1CCCC1)c1ccc2c(=O)n(CC3CCCO3)c(SCc3ccc(F)cc3)nc2c1 (stereo unspecified) | i | 0.57
CN(C)C(=O)c1ccc2c(c1)N(CC(=O)NCc1ccc(F)cc1)C(=O)CS2 | i | 0.84
Cc1ccccc1-c1noc(CCn2c(=O)[nH]c3ccccc3c2=O)n1 | i | 1.03
COc1ccc(S(=O)(=O)Nc2cc3[nH]c(=O)[nH]c3cc2Cl)cc1OC | i | -0.15
O=C(CCCN1C(=O)c2cccnc2Sc2ccccc21)N1CCN(c2ccccn2)CC1 | i | -0.11
Cc1nnc2ccc(-n3ncc4c3NC(=O)CC4c3ccccc3OCc3ccc(Cl)cc3)nn12 (stereo unspecified) | i | -0.74
COC(=O)c1ccc2c(c1)N(Cc1ccc(Cl)cc1)C(=O)CS2 | i | -0.02
COc1ccccc1OCc1nn2c(CSc3ccccc3)nnc2s1 | i | -0.18
CC(C)N1CCN(C(=O)c2cc3c(s2)N(C)CCC3)CC1 | i | 0
COc1ccccc1-c1noc(=O)[nH]1 | i | -0.14
O=C(COc1ccccc1-c1nnc(-c2ccccc2)o1)NCc1ccccc1 | i | -2.05
Cn1c(=O)oc2cc(NC(=O)c3ccc(F)cc3)ccc21 | i | 0.09
O=c1c2nc(-c3ccc(Br)cc3)cn2ccn1-c1ccc2c(c1)CCC2 | i | -0.74
CC(C)CC(=O)Nc1ccc(C2(C(=O)NC(C)C)CC2)cc1 | i | -0.79
The results go on.
SMILES | Choline anaer gr | Choline anaer gr early
Cc1c(C(=O)N2CCC(C)CC2)oc2ccc3c(c12)C(O)CC1(CCCC1)O3 (stereo unspecified) | i | 0.7
O=C(NCC1CC1)c1cccn2c(-c3ccc(F)cc3)nnc12 | i | -0.64
Cc1cccn2c(=O)cc(COc3ccc(NC(=O)Nc4ccc(Cl)cc4)cc3)nc12 | i | -1.02
COc1cc(C2CC(=O)Nc3c2c(-c2ccccc2)nn3-c2ccccc2)ccc1O (stereo unspecified) | i | 1.17
CC(C)Cc1nnc(SCc2cc(=O)n3[nH]c(-c4ccccc4)nc3n2)n1C | i | -0.82
Cn1cc(C(=O)Oc2ccccc2)c2ccccc2c1=O | i | -0.15
COC(=O)c1ccccc1NC(=O)c1nn(-c2ccc(Cl)cc2)c(=O)n(C)c1=O | i | 0.16
O=C(NCc1ccccn1)c1ccc(NC(=O)N2CCSc3ncccc32)cc1 | i | 1.36
COC(=O)c1ccc(C(=O)OC)c(NC(=O)c2nn(-c3ccccc3C)c(=O)cc2OC)c1 | i | -0.89
CN(C)C(CNC(=O)c1cc(=O)c2ccc(Br)cc2o1)c1ccccc1 (stereo unspecified) | i | -0.95
CC(N)(Cc1ccc(O)cc1)C(=O)O (stereo unspecified) | i | -0.03
Cc1cc(N2CCCCC2)nc(N2CCN(S(=O)(=O)c3ccc(Br)cc3)CC2)n1 | i | 0.46
CCCN1CCN(S(=O)(=O)c2cc(-c3nnc(CC)o3)co2)CC1 | i | 0.07
COCC(NC(=O)c1cnc(C)s1)C(=O)NC(COC)C(=O)NC(Cc1ccccc1)C(=O)C1(C)CO1 (stereo unspecified) | i | 0.31
CC(=O)Nc1ccccc1-c1nc2ccccc2n(CCOc2ccc(F)cc2)c1=O | i | 0.24
CCCc1ccc(S(=O)(=O)N2CCCC2c2nc(-c3ccc(Cl)cc3)no2)cc1 (stereo unspecified) | i | 0.09
O=C(NCc1ccc2c(c1)OCO2)c1cccc(Nc2ccc(-c3ccccc3)nn2)c1 | i | 1.87
Cc1noc(/C=C/c2ccc(F)cc2F)c1S(=O)(=O)N1CCC(C(=O)N2CCC(N(C)C(C)C)CC2)CC1 | i | 0.11
Cc1noc(C)c1C1CCCN1C(=O)c1cc(-c2ccc(F)cc2)on1 (stereo unspecified) | i | -0.37
COc1ccc(NC(=O)c2nnc(C3CCN(C(=O)Cc4ccc(F)cc4)CC3)s2)cc1 | i | -1.26
CCCCNc1cc(C(=O)O)cc(S(N)(=O)=O)c1Oc1ccccc1 | i | -1.63&0.24&0.65&0.53
CNC(=O)Cc1ccc(-n2c(=O)c3ccccc3n(CC(=O)NCc3ccccc3)c2=O)cc1 | i | -0.1
O=S(=O)(Nc1ccccc1-c1ccc2ccccc2n1)c1ccc(F)cc1F | i | 0.49
COc1cccc(CN2C(=O)c3ccccc3Sc3ccc(C(=O)NCc4ccc(C)cc4)cc32)c1 | i | -0.46
COc1ccc(OC)c(C2C3=C(CC(C)(C)CC3=O)Nc3nc(SCc4ccccc4Cl)[nH]c(=O)c32)c1 (stereo unspecified) | i | -0.21

Whole records, looked up by structure.
O=C(NCc1ccccn1)c1ccc(NC(=O)N2CCSc3ncccc32)cc1 is listed as Choline anaer gr = i; Choline anaer gr early = 1.36
CN(C)C(CNC(=O)c1cc(=O)c2ccc(Br)cc2o1)c1ccccc1 (stereo unspecified) is listed as Choline anaer gr = i; Choline anaer gr early = -0.95

The main list resumes, repeating the 5 entries before the break.
SMILES | Choline anaer gr | Choline anaer gr early
CCCCNc1cc(C(=O)O)cc(S(N)(=O)=O)c1Oc1ccccc1 | i | -1.63&0.24&0.65&0.53
CNC(=O)Cc1ccc(-n2c(=O)c3ccccc3n(CC(=O)NCc3ccccc3)c2=O)cc1 | i | -0.1
O=S(=O)(Nc1ccccc1-c1ccc2ccccc2n1)c1ccc(F)cc1F | i | 0.49
COc1cccc(CN2C(=O)c3ccccc3Sc3ccc(C(=O)NCc4ccc(C)cc4)cc32)c1 | i | -0.46
COc1ccc(OC)c(C2C3=C(CC(C)(C)CC3=O)Nc3nc(SCc4ccccc4Cl)[nH]c(=O)c32)c1 (stereo unspecified) | i | -0.21
CC(C)c1ccccc1S(=O)(=O)c1cc(N)c2ncccc2c1[N+](=O)[O-] | i | 0.79
CCC(Sc1nnc(-c2ccccc2NC(C)=O)c(=O)[nH]1)C(=O)Nc1cccc(C)c1C (stereo unspecified) | i | -0.93
O=C(CSCc1nc2cccnc2n1C1CCCCC1)NCc1cccc(F)c1 | i | 1.42
O=C(COC(=O)C(Cc1c[nH]c2ccccc12)NC(=O)c1ccc(Cl)cc1)c1ccc(Cl)cc1 (stereo unspecified) | i | 1.48
CC1CCN(c2nc(N)c(C(=O)NC(C)C)s2)CC1 | i | 0.48
O=C(COc1ccccc1)Nc1cc(-c2ccccc2)nn1-c1ccccc1 | i | 0.06
O=S(=O)(Cc1nc(-c2ccccc2)no1)c1ccc(Cl)cc1 | i | -0.33
Cc1cccc(-c2noc(CSc3nc4c(oc5ccccc54)c(=O)n3CC3CCCO3)n2)c1 (stereo unspecified) | i | 0.69
CC1CCCCN1C(=O)c1cccc2c1SCCC2=O (stereo unspecified) | i | 0.48
CC1=C(c2ccc(C)c(C)c2)S(=O)(=O)N(Cc2ccc(C(=O)NCCC3=CCCCC3)cc2)C1=O | i | -0.55
O=S(=O)(c1ccc(Br)cc1)N1CCc2nc[nH]c2C1 | i | -2.47
Cc1cc(C)cc(S(=O)(=O)N2CCC3(CC2)NCCN=C3NC(C)(C)C)c1 | i | -0.33
Cc1ccc(-c2nn3c(=O)cc(CN4CCN(C(=O)c5ccc(C(C)(C)C)cc5)CC4)nc3s2)cc1 | i | -1
Cc1nc(N2CCc3ccccc32)c2onc(-c3ccccc3)c2n1 | i | 0.11
CC1CC(=O)N(C(C)c2ccccc2)c2ccccc2N1 (stereo unspecified) | i | 0.19
CCOc1cccc(CN2CCCC2c2cc(C(C)C)on2)c1O (stereo unspecified) | i | 0.7
C=CCn1c(=O)c(=O)n(CC(=O)N2CCCC2)c2ccccc21 | i | -1.4
COc1ccc(NC(=O)n2ncc3cc(Cl)ccc32)c(OC)c1 | i | -1.31
Cc1ccc(N2NC(=O)C(C)(C)C2=O)cc1 | i | 0.33
CCCN(CCC)C(=O)Cn1cnc2onc(-c3ccc(Cl)cc3)c2c1=O | i | -0.1
COC(=O)c1ccccc1NC(=O)c1ccc(-n2nc(OCc3ccc(Cl)cc3)ccc2=O)cc1 | i | -1.44
O=S(=O)(c1cc(-c2noc(C3CC3)n2)cs1)N1CCOCC1 | i | 0.07
Cc1cccc(N(Cc2nc3nc(C)cc(=O)n3[nH]2)S(C)(=O)=O)c1 | i | -1.37
CCNC(=O)CCn1cnc2c(c(C)c(C)n2-c2ccccc2)c1=O | i | -0.84
COc1ccc(-c2noc(CCc3nnc4ccc(N5CCN(C6CCCCC6)CC5)nn34)n2)cc1 | i | 0.47
Other structures
SMILES | Choline anaer gr | Choline anaer gr early
CC(C)c1nnc(-c2ccc(S(=O)(=O)NC3CCCCC3)o2)o1 | i | -0.69
CC1(C(=O)NC2CCCC2)CSc2c([nH]c3ccccc23)C(=O)N1Cc1ccc(Cl)cc1 (stereo unspecified) | i | -0.29
CN(C)S(=O)(=O)c1ccc(C(=O)NCCN=C2NS(=O)(=O)c3ccccc32)cc1 | i | 0.59
CCc1ccc(NC(=O)N2CCN(Cc3nc(-c4ccccc4)oc3C)CC2)cc1 | i | -1.69
O=C(Nc1cccc(C(=O)N2CCCC(C(=O)NCc3ccccc3)C2)c1)c1ccccc1Cl (stereo unspecified) | i | -0.32
COc1ccc(C2CC(=O)c3cnc(NCCCOC(C)C)nc3C2)cc1 (stereo unspecified) | i | -0.19
Cc1ccc(-c2cc3c(=O)[nH]nc(SCc4cc(=O)n5ccccc5n4)n3n2)cc1 | i | 0.73
O=C(Nc1nccs1)C1CCCN(c2ccc3cc(S(=O)(=O)N4CCCC4)ccc3n2)C1 (stereo unspecified) | i | -0.4
O=C1CCC(C(=O)N2CSCC2C(=O)O)N1 (stereo unspecified) | i | 0.38&0.74
Cc1ccc(C)c(S(=O)(=O)N2CCCC2c2cc(C)no2)c1 (stereo unspecified) | i | 0.62
Cc1nc2c3c(C)c(C)n(C)c3ncn2n1 | i | -2.68
COCCn1cc(C(=O)N2CCN(c3ccccc3F)CC2)c2c3ccccc3n(C)c2c1=O | i | 1.12
O=C(c1cc(-c2cccnc2)on1)N1CCN(C(c2ccccc2)c2ccccc2)CC1 | i | -0.3
CCc1cc(C2NNC(C)C2c2ccc3c(c2)OCCO3)c(O)cc1O (stereo unspecified) | i | 0.26
CN(CCc1noc(-c2ccc(C(=O)N3CCCC3)cc2)n1)C(=O)CC1CCCC1 | i | 0.49
CC(c1ccccc1)n1cnc2c3cc(F)ccc3n(Cc3ccccc3F)c2c1=O (stereo unspecified) | i | 1.21
Cc1ccccc1N1CCN(S(=O)(=O)CC23CCC(C[C@@H]2NC(=O)[C@@H](N)CCS(C)(=O)=O)C3(C)C)CC1 (stereo partly specified) | i | 1.25
COc1ccc(-c2noc(-c3scc(-c4cccc(C)c4)c3-n3cccc3)n2)cc1OC | i | 0.79
COc1ccc(OC)c(NC(=O)Nc2ccc(-c3nnc(-c4ccccc4)o3)cc2)c1 | i | -0.64
NCCNCCNCCNCCN | i | 0.38
O=C(NCc1cccs1)C1CCN(c2cnc(N3CCSCC3)nc2)CC1 | i | 0.82
O=C(Nc1ccc2c(c1)OCCO2)c1ccc(-c2cccc(F)c2)nc1 | i | 0.36
CCN(CC)C(=O)c1cc2cccnc2n(Cc2ccc(F)cc2)c1=O | i | -0.96
CC1CCCN(C(=O)C2CCN(c3ncnc4c3oc3ccccc34)CC2)C1 (stereo unspecified) | i | 0.19
CCCCC[C@H](O)/C=C/C=C\C=C\C=C\[C@@H](O)[C@@H](O)CCCC(=O)O | i | 0.59

Next part, starting with the last 4 of the part before.
SMILES | Choline anaer gr | Choline anaer gr early
O=C(Nc1ccc2c(c1)OCCO2)c1ccc(-c2cccc(F)c2)nc1 | i | 0.36
CCN(CC)C(=O)c1cc2cccnc2n(Cc2ccc(F)cc2)c1=O | i | -0.96
CC1CCCN(C(=O)C2CCN(c3ncnc4c3oc3ccccc34)CC2)C1 (stereo unspecified) | i | 0.19
CCCCC[C@H](O)/C=C/C=C\C=C\C=C\[C@@H](O)[C@@H](O)CCCC(=O)O | i | 0.59
CC(C)NC(=O)c1ccc2c(c1)CCN2C(=O)C1CCC1 | i | 0.59
O=C(CCc1cn(-c2ccccc2)nc1-c1ccc2c(c1)OCO2)NC1CC1 | i | -0.57
CC(C)CC(=O)NCC1(N2CCOCC2)CCCCC1 | i | -0.75
CCc1ccccc1NC(=O)Cn1nc(N2CCN(c3ccccc3OC)CC2)ccc1=O | i | -0.92
CC(NC(=O)CCc1cn(-c2ccccc2)nc1-c1ccc2c(c1)OCO2)c1ccc2c(c1)OCCO2 (stereo unspecified) | i | 1.77
O=C(c1ccc(-n2nc(N3CCCC3)ccc2=O)cc1)N1CCc2ccccc2C1 | i | 0.07
Cc1ccc(-c2nc(CN3CCCC(C(=O)Nc4c(C)cc(C)cc4C)C3)no2)cc1 (stereo unspecified) | i | -1.21
CCOC(=O)C1CCN(C(=O)CCS(=O)(=O)c2ccc3c(c2)oc(=O)n3C)CC1 | i | -1.06
Cc1sc(C)c(S(=O)(=O)N2CCCCCC2)c1-c1cc(C(F)(F)F)on1 | i | -1.63

A portion of the library. The share of hits here may be higher or lower than overall.
